VACV mCherry inh: vaccinia inhibition (mCherry reporter). Vaccinia virus mCherry reporter infection, fluorescence; about a quarter of the inactives have no number. Potency, µM (titrated, usually from 36.5 µM), for inactives: at the highest dose activity change, negative = inhibition, most hits filed as inhibitors. actives 0.63% (n = 310,000). AID 720579; active = well fitted inhibition curve with a large enough effect; inconclusive = small, poorly fitted or top-dose-only effect; inactive = no such curve, though single readings can be large or run the other way; tested in A549 cells; also: nearly all actives have a fitted effect of over 35% in size; inactives centre near -10
VACV Venus inh: vaccinia inhibition (Venus reporter); actives 0.46% (n = 330,000); AID 720580; Vaccinia virus Venus reporter expression, fluorescence; Potency, µM (highest dose often 36.5 µM), for the others: at the highest dose activity change, negative = inhibition, hits mostly inhibitors; active means well fitted inhibition curve with a large enough effect; inconclusive means small, poorly fitted or top-dose-only effect; inactive means no such curve, though single readings can be large or run the other way; tested in A549 cells; also: nearly all actives have a fitted effect of over 30% in size; inactives centre near -10
* hit, by the source's call; i = inactive; ? = inconclusive; / = no result given; & = joins results of further samples. % is scaled to controls: 0 for no effect and ±100 for the full control effect; potency is read from the fitted curve at half-maximal effect.

Below each compound: VACV mCherry inh | VACV Venus inh
[1] COc1cc(O)cc2c1[C@@H]1Oc3c(ccc(O)c3CC=C(C)C)[C@@H]1CO2
 : ? | -29.8%
[2] O=C1CC(N2CCN(c3ccccc3Cl)CC2)C(=O)N1c1ccccc1 (centres undefined)
 : -9.5% | -6.1%
[3] CCCCN(C(=O)COC(=O)c1sccc1C)c1c(N)n(CCC)c(=O)[nH]c1=O
 : -11.5% | -8.3%
[4] Cc1nc2ccccc2n1-c1nc(-c2ccco2)cc(C(F)(F)F)n1
 : ? | ?
[5] Cc1ccc(S(=O)(=O)N(C)C)cc1NC(=O)COC(=O)COc1ccc2c(c1)CCC2
 : -11.9% | -11.8%
[6] O=C(NCc1ccon1)C1CCC(=O)N(CCc2cccc(F)c2)C1 (centres undefined)
 : -5.0% | -20.4%
[7] CC(=O)Nc1cccc(-c2ccnc3c2CC(C)(C(=O)Nc2ccc(Cl)c(C(F)(F)F)c2)O3)c1 (centres undefined)
 : -11.9% | -22.9%
[8] CN(C)CCNc1c(N)c(=O)oc2ccccc12
 : i | -14.5%
[9] c1ccc2c(c1)CCN(Cc1nnnn1Cc1ccc3c(c1)OCO3)C2
 : / | -9.8%
[10] COc1cccc(NC2SC(=O)N(c3ccccc3)C2=O)c1 (centres undefined)
 : 5.2% | 0.2%
[11] Cc1cc(C)c(-n2c(O)c(/C=N/NC(=O)c3ccncc3)c(=O)[nH]c2=O)c(C)c1
 : -11.8% | -1.7%
[12] COc1ccc(CC(=O)N(C)Cc2cccc(F)c2)cc1S(=O)(=O)N1CCOCC1
 : -13.3% | -12.3%
[13] O=C(CSc1n[nH]c(-c2ccc(F)cc2)n1)NCCc1ccccc1
 : -9.6% | -4.1%
[14] COC(=O)c1ccccc1NC(=O)Cn1c(=O)n(-c2cccc(C(F)(F)F)c2)c(=O)c2c(C)c(C)sc21
 : -4.3% | -8.1%
[15] Cc1nn(C)cc1NC(=O)CCSc1nc(-c2ccco2)cc(C(F)(F)F)n1
 : / | -19.3%
[16] Cc1cccc(C)c1OCC(=O)NNC(=O)CNC(=O)c1ccc(OC(F)F)cc1
 : -14.7% | -27.6%
[17] CCCCN(CC)C(=O)Nc1ccc2c(c1)N(C)C(=O)c1ccccc1S2
 : -12.7% | -12.3%
[18] CCCCN1C(=N)C(CC)(CC)C(=O)NC1=O
 : -12.4% | -10.3%
[19] COc1ccc(-c2nn(-c3ccccc3)cc2C(=O)N2CCN(S(=O)(=O)c3ccccc3C#N)CC2)cc1
 : -15.0% | -22.1%
[20] O=C(Nc1nnc([C@@H]2C[C@H](O)[C@@H](CO)O2)s1)c1ccccc1Cl
 : 1.8% | 4.5%
[21] Cc1cc(NC(=O)CCC(=O)N(c2ccccc2)C(C(=O)NC2CCCC2)c2ccncc2)no1 (centres undefined)
 : -6.3% | -0.2%
[22] O=C(CNC(=O)c1ccc(Br)o1)NNC(=O)c1ccc(Cl)cc1
 : -14.0% | -0.5%
[23] CCOC(=O)C(C)Oc1ccc2c(-c3cccc([N+](=O)[O-])c3)cc(=O)oc2c1 (centres undefined)
 : -10.0% | -12.0%
[24] Cn1c(SCC(=O)OC2CCCCC2)nnc1-c1ccc2c(c1)OCO2
 : i | -7.6%
[25] CCOC(=O)c1c(N2C(=O)Nc3cc(Cl)c(Cl)cc3N2O)sc2c1CCCCC2
 : / | -21.6%
[26] Cc1cc(C)n(-c2ccc(C(=O)Nc3ccc(S(=O)(=O)N(C)C)cc3)cc2)n1
 : -4.4% | -22.2%
[27] O=C(NCc1ccccc1)c1cccc(NC(=O)C2CC2)c1
 : 1.3% | 0.4%
[28] CCOC(=O)c1cc(-c2ccccc2)sc1NC(=O)CSc1nncs1
 : -1.3% | -5.1%
[29] COc1ccccc1CCc1nnc(CCC(=O)NCC[C@@H]2C[C@@H]3C=C[C@H]2C3)o1
 : -22.2% | -20.8%
[30] CCOc1ccccc1NC(=O)CSc1nnc(-c2ccccc2Cl)n1Cc1ccco1
 : / | -23.0%

(cont.)
Below each compound: VACV mCherry inh | VACV Venus inh
[31] CCOC(=O)C1=C(CCc2ccccc2)NC(=O)NC1c1ccc(Br)cc1 (centres undefined)
 : -1.2% | -23.8%
[32] Cc1n[nH]c(=O)c2c1nnn2Cc1ccccc1Cl
 : -8.8% | -9.7%
[33] CCCOc1cccc(-c2nn(-c3ccccc3)cc2/C=C(\C#N)C(=O)NCCCn2ccnc2)c1
 : -1.7% | -10.9%
[34] COc1ccccc1CNC(=O)COc1ccc([N+](=O)[O-])cc1
 : -15.7% | -12.5%
[35] CSc1nnc2c3ccccc3c3ccccc3c2n1
 : -4.4% | 6.9%
[36] CC(C)c1ccc(NC(=O)C(c2ccc3c(c2)OCO3)N2CCCCC2)cc1 (centres undefined)
 : -6.9% | -12.9%
[37] Cc1c(-c2ccccc2)[n+](=O)c2c(n1[O-])CCC2
 : -8.6% | -0.7%
[38] CCCCC(=O)Nc1nn(CCC)c2nc3ccccc3cc12
 : / | -18.5%
[39] CCCN(CCC)CCN1C(=O)C2C(C(=O)Nc3ccc(C)cc3)C3C=CC2(O3)C1C(=O)NC1CCCCC1 (centres undefined)
 : -0.4% | -11.5%
[40] Cc1ccc(NC(=O)C(C)OC(=O)Cn2cnc3ccccc3c2=O)cc1 (centres undefined)
 : -14.9% | -6.8%
[41] CCOC(=O)C1CCN(S(=O)(=O)c2ccc3[nH]c(=O)oc3c2)CC1
 : ? | -5.5%
[42] O=C(Nc1ccc2c(c1)OCCO2)C1CCN(S(=O)(=O)c2ccc(Br)s2)CC1
 : / | ?
[43] C=CCN1CCN(C(CCC)c2nnnn2Cc2ccco2)CC1 (centres undefined)
 : i | -6.7%
[44] Cc1nonc1C(=O)N1CCCC(N2CCN(c3ccc(F)cc3)CC2)C1 (centres undefined)
 : i | -18.8%
[45] CCCCOc1ncnc2c1[nH]c1ccccc12
 : -28.6% | ?
[46] Cc1cc(C(=O)NCCCN2CCN(c3cc(Cl)ccc3C)CC2)n(-c2ccccc2)n1
 : -22.9% | ?
[47] Cc1ccc(NC(=O)CCNC(=O)c2ccco2)cc1
 : -12.2% | -10.3%
[48] CCN1CCCC1CNC(=O)C(=O)NCc1ccccc1 (centres undefined)
 : i | -3.3%
[49] c1cc[n+](CCC[n+]2ccccc2)cc1
 : i | -15.4%
[50] CN(C(=O)COc1cccc(Br)c1)C1CCS(=O)(=O)C1 (centres undefined)
 : -11.3% | -13.6%
[51] CCOC(=O)C1=C(C)NC(=O)CC1c1ccccc1 (centres undefined)
 : -12.8% | ?
[52] CN1CCN2c3ccccc3CC3(C(=O)N(C)C(=O)N(C)C3=O)C2C1 (centres undefined)
 : i | -12.2%
[53] COc1cc(NC(=O)COc2ccc(Cl)cc2)ccc1NC(=O)C(C)C
 : -6.2% | -5.7%
[54] Cc1ccc(CNc2ncnc3c2c(-c2ccccc2)cn3-c2cccc(Cl)c2)cc1
 : -7.3% | -8.1%
[55] Cc1cc(OC(=O)c2ccc(S(=O)(=O)N3CCCCC3)cc2)c([N+](=O)[O-])c(=O)[nH]1
 : -1.7% | -18.2%
[56] COc1cc2c(cc1OC)C(=O)CCS2
 : -10.7% | -7.9%
[57] O=C(Nc1cccc(Cl)c1)C1=CC=CN2CCS(=O)(=O)N=C12
 : -13.0% | -0.4%
[58] Oc1ccc(/C=N/N=C(c2ccccc2)c2ccccc2)c(O)c1O
 : ? | -6.0%
[59] CN(C)S(=O)(=O)c1cccc(NC(=O)c2ccc(S(=O)(=O)N3CCCCC3)cc2)c1
 : ? | -26.7%
[60] CCc1ccc(/C=C2\SC(=S)N(CCCC(=O)N3CCCC3)C2=O)cc1
 : ? | ?

Other entries.
Below each compound: VACV mCherry inh | VACV Venus inh
[61] CCC1Nc2ncnc(N3CCCCC3)c2N(Cc2ccc(OC)cc2)C1=O (centres undefined)
 : i | -27.2%&-1.8%
[62] Cn1c(SCc2cc(=O)c3cc(Cl)ccc3[nH]2)nnc1-c1ccccc1
 : -13.7% | -16.1%
[63] COC(=O)c1cc(NC(=O)C2CC(=O)NC(=NCc3ccc(OC)cc3)S2)cc(C(=O)OC)c1 (centres undefined)
 : 0.6% | -9.7%
[64] COc1ccc(C(CNC(=O)COc2ccc(C)cc2)N2CCCCC2)cc1 (centres undefined)
 : -13.6% | -12.6%
[65] Cc1csc2nc(COC(=O)c3cccc(NC(=O)COc4ccccc4Cl)c3)cc(=O)n12
 : i | -19.9%
[66] CCOc1ccc(C(=O)NCC(=O)NCCSc2ccc(Br)cc2)cc1OCC
 : -1.8% | -8.8%
[67] NC(=O)c1ccccc1
 : i | -9.5%
[68] O=C(CCc1ccccc1)NCc1cccnc1
 : -4.4% | -8.5%
[69] COc1ccccc1Cn1c(-c2ccco2)nc2nc3ccccc3nc21
 : -10.3% | 3.4%
[70] Cc1onc(-c2ccccc2)c1C(=O)NCc1ccc(F)cc1
 : -11.1% | -9.0%
[71] CCOC(=O)c1ccc(N2C(=O)C3ON(c4ccccc4)C(c4ccco4)C3C2=O)cc1 (centres undefined)
 : 4.7% | 3.5%
[72] CCN(CC)c1ccc(NC(=O)COc2ccc(C)cc2)cc1
 : -1.4% | -3.4%
[73] COCCCn1c(SCC(=O)N2CCOCC2)nc2ccccc2c1=O
 : i | 0.5%
[74] CCOC(=O)c1sc(=S)n(C)c1NC(=O)c1cccc(Br)c1
 : -15.8% | ?
[75] CCOC(=O)c1cccc(C2=C(CNC(=O)c3nccs3)[C@H]3CC[C@@H](C2)N3Cc2ccccc2)c1
 : -19.2% | -24.6%
[76] Cc1ccc(OCc2cc(C(=O)N(C)CCn3ccnc3C)no2)cc1C
 : i | -20.0%
[77] CCN1C[C@@H]2[C@@H]3C(=O)N(Cc4ccccc4)C(=O)[C@@H]3[C@](Cc3ccccc3)(C1=O)N2C(=O)c1ccc(C(C)(C)C)cc1
 : -26.9% | ?
[78] CCCn1nnc(NC(=S)NC(=O)C(C)(C)C)n1
 : ? | ?
[79] CCCCn1c(SCC(=O)OCC)nnc1-c1ccoc1C
 : -15.3% | -8.7%
[80] COC(=O)c1ccc(OC(C)C(=O)c2ccc(C)cc2)cc1 (centres undefined)
 : i | -8.1%
[81] CCNS(=O)(=O)c1ccc(NC(=O)c2ccc(Cn3cc([N+](=O)[O-])cn3)o2)cc1
 : -25.0% | -7.7%
[82] CC(C(=O)Nc1ccccc1)N(C)Cc1cccs1 (centres undefined)
 : -10.3% | -12.2%
[83] COc1cc(CN2CCCN(C)CC2)cc([N+](=O)[O-])c1O
 : i | -3.6%
[84] O=C(Nc1ccccc1-c1ccccc1)c1ccco1
 : -4.3% | -8.4%
[85] COc1ccc(NC(=O)Cn2ncc3c2-c2ccccc2OC3)cc1Cl
 : -19.1% | -11.6%
[86] COc1ccc(S(=O)(=O)C(C#N)c2nc3ccccc3nc2N2CCCC(C)C2)cc1 (centres undefined)
 : / | 4.0%
[87] Cc1cc(NC(=O)c2ccc(Br)cc2)nc(C)n1
 : -2.3% | -14.8%
[88] Cc1ccc(CNc2nc3c(S(=O)(=O)c4ccccc4)nnn3c3ccsc23)cc1
 : ? | -26.1%
[89] CC1CN(C(=O)CCC(=O)NCc2ccccn2)c2ccccc2O1 (centres undefined)
 : -5.6% | -10.6%
[90] O=C(Nc1c(-c2ccc3c(c2)OCO3)[nH][nH]c1=O)c1ccc2c(c1)OCO2
 : i | 10.8%

New compounds follow:
Below each compound: VACV mCherry inh | VACV Venus inh
[91] CCc1ccccc1NC(=O)C(C)n1nc(-c2ccc(C)c(C)c2)ccc1=O (centres undefined)
 : -14.4% | -15.2%
[92] O=C1N2CCCc3cccc(c32)C12Nc1ccccc1S2 (centres undefined)
 : 1.0% | 0.0%
[93] COc1ccc(OC)c(NC(=O)CSc2nc(C)cs2)c1
 : -0.4% | -9.6%
[94] Cn1c(=O)[nH]c2c(c(C(=O)O)nn2C)c1=O
 : -14.3% | -7.6%
[95] O=C(CCC1CCCC1)NCCS(=O)(=O)N1CCN(c2ccccc2F)CC1
 : -19.2% | -5.3%
[96] CCSc1nc(C)c(C)c(=O)[nH]1
 : -8.4% | 7.6%
[97] COCCCN(C(=O)C1CCCCC1)c1c(N)n(Cc2ccccc2)c(=O)[nH]c1=O
 : i | -6.8%
[98] COCc1cc(=O)[nH]c(SCCS(=O)(=O)c2ccc(C)cc2)n1
 : ? | ?
[99] COc1cccc(CNC(=O)C(=O)NCC2CCCO2)c1 (centres undefined)
 : / | -10.0%
[100] Cc1nn2c(-c3cccc(NC(=O)c4ccc(Cl)cc4)c3)nnc2c2ccccc12
 : ? | -29.3%
[101] NS(=O)(=O)c1ccc(CCNC(=O)/C=C/c2cccc([N+](=O)[O-])c2)cc1
 : -9.0% | -11.3%
[102] O=C(COC(=O)c1ccc(F)cc1F)Nc1ccc2c(c1)OCO2
 : -24.0% | -13.3%
[103] N#Cc1cc2c(nc1SC1CC(=O)N(c3ccccc3)C1=O)CCC2 (centres undefined)
 : -5.8% | -1.1%
[104] CCC(=O)C1=C(O)C(c2cccc(Oc3ccccc3)c2)CCC1=O (centres undefined)
 : -1.3% | -26.3%

Screening results from PubChem BioAssay.
